High-throughput results from PubChem.
PKD1 kinase inh: blocks activity of human protein kinase D1; Q15139; PKD1 kinase fluorescence polarization assay; inhibition, %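 (about 10 µM by stock and volumes)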; 0.056% of 200,000 active;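 active means inhibition of 50% or more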;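 further: controls were vehicle for no effect and a reference inhibitor for full effect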
RGS16-Gao HTS: RGS16-Galphao interaction regulator (human); 0.38% of 220,000 active; O15492+P09471; binding response (% of control), % at 10 µM; bead-based flow cytometry RGS16-Galphao binding, fluorescence; actives lie on both sides;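 active means below 25% or above 175%, edge rows of some plates excepted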;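 further: Galphao activated by GDP with aluminum fluoride before binding; 100% = wells without compound and 0% = beads without RGS; some results beyond the cut were filed as inactive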
Target sequence (O15492 whole entry, looked up): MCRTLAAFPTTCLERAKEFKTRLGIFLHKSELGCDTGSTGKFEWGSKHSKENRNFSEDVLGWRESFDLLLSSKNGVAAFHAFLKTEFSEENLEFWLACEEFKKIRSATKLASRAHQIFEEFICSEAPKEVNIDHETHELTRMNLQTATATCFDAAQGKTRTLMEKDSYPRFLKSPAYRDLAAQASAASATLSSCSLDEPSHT
Target sequence (P09471 whole entry, looked up): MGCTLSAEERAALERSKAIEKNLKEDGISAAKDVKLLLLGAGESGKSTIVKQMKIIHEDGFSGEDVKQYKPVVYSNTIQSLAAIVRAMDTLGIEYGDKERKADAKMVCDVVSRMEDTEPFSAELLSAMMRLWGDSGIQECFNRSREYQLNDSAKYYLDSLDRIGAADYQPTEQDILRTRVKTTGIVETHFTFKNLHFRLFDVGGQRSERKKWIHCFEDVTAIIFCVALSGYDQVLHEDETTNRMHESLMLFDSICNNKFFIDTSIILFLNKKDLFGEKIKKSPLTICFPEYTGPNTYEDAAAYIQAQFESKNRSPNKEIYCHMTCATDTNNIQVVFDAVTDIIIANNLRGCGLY
HSV augment: increases HSV replication in cells; 0.005% of 220,000 active; AID 1956; HSV replication augmentation in cells, fold increase; maximum fold increase;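 active means peak rise of 1.5-fold or more in the series; tested in PC3 cells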;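 further: first round at 10 µM; read as green reporter fluorescence; hits show the peak of a series up to 25 µM; 1 = signal of infected wells without compound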
GALR2 ag: agonists of human galanin receptor 2 (GALR2); activation, %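 (tested at 5 µM)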; 0.48% of 140,000 active; GALR2-expressing cells, agonist activation read-out; O43603;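 active means above mean plus 3 SD of all compounds, about 5% in these data, not always enough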;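 further: 0% = vehicle buffer wells and 100% = reference agonist at full effect; tested in CHO reporter cells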
Target sequence (O43603 whole entry, looked up): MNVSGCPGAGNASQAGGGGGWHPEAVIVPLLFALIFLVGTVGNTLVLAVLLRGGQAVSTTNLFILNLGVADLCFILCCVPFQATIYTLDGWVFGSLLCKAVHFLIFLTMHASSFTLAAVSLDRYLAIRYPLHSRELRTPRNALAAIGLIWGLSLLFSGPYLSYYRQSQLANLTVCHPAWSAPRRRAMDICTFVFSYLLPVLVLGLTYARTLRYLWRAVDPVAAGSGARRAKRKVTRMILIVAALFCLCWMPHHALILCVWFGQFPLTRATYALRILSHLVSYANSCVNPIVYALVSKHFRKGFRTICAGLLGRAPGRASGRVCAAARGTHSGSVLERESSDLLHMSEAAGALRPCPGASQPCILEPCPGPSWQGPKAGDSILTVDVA
Insulin prom inh: TRM-6 insulin promoter activity inhibition; inhibition, % at 2 µM; 0.9% of 130,000 active; TRM-6 cells (human fetal islet line), insulin promoter-eGFP reporter, imaging; reporter expression induced with tamoxifen;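 active means inhibition above the mean plus 3 SD, with well images judged a real hit on visual review, cut at about 60% in these data, passing the limit was not always enough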
Insulin prom inh cell count: further read-out of Insulin prom inh, marked with its call; normalized cell count, %; measured here: cell count, toxicity; reference of the scale not given here;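 cells exposed to compound for 48 h; stained nuclei by imaging scaled within each plate; lower means fewer cells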
HSV augment primary fold: also measured in HSV augment; calls as there; fold increase; compound at 10 µM; measured here: primary screen fold increase 10 uM; tested in PC3 cells;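 GFP signal in the first replicate; 1 = infected wells without compound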
* = called active by the depositor; i = inactive; nt = not tested or not shown.

Second line of a record – HSV augment primary fold, PKD1 kinase inh, HSV augment, RGS16-Gao HTS, GALR2 ag, Insulin prom inh cell count, Insulin prom inh
CCNC(=O)C1CC(=O)N(Cc2ccc3c(c2)OCO3)C(=Nc2ccc(F)cc2)S1 (stereo unspecified)
  0.88, -1.7, i, 99.9, -3.1, 63.8, 8.3
FC(F)(F)c1cnc(Nc2ccc(N3CCOCC3)cc2)c(Cl)c1
  0.85, -9.3, i, 93.7, 0.0, nt, nt
Cn1c(C(=O)O)c(CC(=O)Nc2ccc(F)cc2F)c2ccccc21
  1.03, 5.8, i, 103.0, -2.0, 55.3, -470.0
Cc1cc(C)n2c(SCC(=O)Nc3ccccc3)nnc2n1
  1.25, 6.8, i, 104.3, -1.5, nt, nt
OCCNCCCCOc1cccc(Br)c1
  0.84, 1.0, i, 108.5, -0.4, 184.8, 6.7
COc1cc(NS(=O)(=O)c2ccc(N/C=C(\C#N)c3nc4cc(Cl)ccc4o3)cc2)nc(OC)n1
  0.79, 4.7, i, 100.8, 0.3, 118.4, 26.7
COc1ccc(Cn2nc(C)n(N(C)c3ncc(C(F)(F)F)cc3Cl)c2=O)cc1
  0.993, -5.8, i, 102.7, -2.0, 164.8, -53.1
CCOC(=O)c1sc(NC(=O)Cn2nnc3sc4c(c3c2=O)CCCC4)nc1C
  0.76, -10.8, i, 101.0, -3.0, 108.8, -17.9
COc1ccccc1NC(=S)N(Cc1ccc(Cl)cc1)CC1CCC(C(=O)O)CC1 (stereo unspecified)
  0.81, -0.8, i, 102.3, nt, nt, nt
Cc1cc(C)cc(-n2ccnc2SCC(=O)O)c1
  1.04, 4.7, i, 103.0, nt, 103.3, 38.9
CC1CCCCC1NC(=O)COC(=O)c1ccccc1NC(=O)c1ccco1 (stereo unspecified)
  1.11, -1.1, i, 101.3, -2.5, 94.7, 10.7
CC(C)Sc1nc2c(c(=O)[nH]c(=O)n2C)n1CC(O)COc1ccccc1 (stereo unspecified)
  1.18, 1.9, i, 94.9, nt, nt, nt
Cc1ccc(N(CC(=O)N/N=C/c2cccnc2)S(=O)(=O)c2ccccc2)cc1
  0.91, 6.1, i, 102.9, nt, 142.2, -5.9
O=C(CSc1nnc(CNc2ccc(F)cc2)n1Cc1ccco1)N1CCCC1
  1.08, -4.1, i, 64.6, -0.8, 91.5, -39.3
CCCCCc1nnc(N)s1
  0.81, -4.2, i, 103.1, -3.4, nt, nt
CCC(c1nnnn1Cc1ccc2c(c1)OCO2)N1CCN(c2ccc(OC)cc2)CC1 (stereo unspecified)
  1.09, 9.4, i, 96.2, -0.4, nt, nt
CCN(CC)C(=O)CSc1nc(N)c(C#N)c(-c2cccs2)c1C#N
  0.98, -5.7, i, 98.6, 0.0, 131.7, 38.1
CCN(Cc1ccccc1)C(=O)Cn1c(=O)oc2ccccc21
  1.01, 1.3, i, 104.2, nt, 129.6, 41.7
OCc1nc2ccccc2n1CC(O)COc1ccccc1 (stereo unspecified)
  0.96, 2.4, i, 97.6, -1.1, nt, nt
COCCNc1nc2c(c(=O)n(C)c(=O)n2C)n1Cc1cccc(C(F)(F)F)c1
  0.94, 4.1, i, 106.7, -1.4, 102.8, 33.3

Overlap with the part before: 3 compounds, then new ones.
Second line of a record – HSV augment primary fold, PKD1 kinase inh, HSV augment, RGS16-Gao HTS, GALR2 ag, Insulin prom inh cell count, Insulin prom inh
CCN(Cc1ccccc1)C(=O)Cn1c(=O)oc2ccccc21
  1.01, 1.3, i, 104.2, nt, 129.6, 41.7
OCc1nc2ccccc2n1CC(O)COc1ccccc1 (stereo unspecified)
  0.96, 2.4, i, 97.6, -1.1, nt, nt
COCCNc1nc2c(c(=O)n(C)c(=O)n2C)n1Cc1cccc(C(F)(F)F)c1
  0.94, 4.1, i, 106.7, -1.4, 102.8, 33.3
COc1ccc(-c2cc(-c3cccnc3)c(C#N)c(N)n2)cc1
  0.93, nt, i, 94.1, nt, nt, nt
O=S(=O)(NC1=NCCCCC1)c1ccc(Cl)cc1
  0.74, 8.5, i, 90.2, nt, nt, nt
CCN1C(=O)c2cccc3c(S(=O)(=O)NCc4ccco4)ccc1c23
  1.03, -5.1, i, 105.6, -0.2, 61.5, 24.3
c1coc(-c2nc3c([nH]2)CCc2nonc2-3)c1
  0.71, -2.3, i, 104.5, -1.7, nt, nt
O=C(COC(=O)C1CC1)Nc1ccc2[nH]c(=O)[nH]c2c1
  1.24, -1.7, i, 96.7, nt, 102.8, -16.7
COc1ccc(/C=C/C(=O)NCCc2ccc(OC)c(OC)c2)cc1
  0.8, -7.9, i, 97.5, 0.9, 80.2, 31.0
CC(C)NC(=O)CN(C)S(=O)(=O)c1ccc(F)cc1
  0.91, -1.6, i, 120.4, 0.4, nt, nt
CC(=O)c1c(COC(=O)c2ccccc2)nc2ccccc2[n+]1[O-]
  0.94, 3.4, i, 105.3, -1.4, 117.1, 21.9
Clc1ccc(CNC23CN4CN(CN(C4)C2)C3)c(Cl)c1
  nt, -8.3, nt, 100.2, 0.0, 119.4, -8.3
CN(C)Cc1cc(C(C)(C)c2cc(CN(C)C)c(O)c(CN(C)C)c2)cc(CN(C)C)c1O
  0.84, 6.6, i, 190.6, -2.5, 122.5, 40.6
O=C(Nc1cccnc1)c1ccc(Oc2ccccc2)cc1
  0.87, -1.6, i, 102.1, -2.5, 130.5, -15.1
O=c1[nH]c(-c2ccc(F)cc2)nc2c1sc(=S)n2-c1ccccc1
  1.26, 0.0, i, 170.0, -1.4, nt, nt
O=S(=O)(c1ccccc1)N1CCN(c2ccnc3cc(Cl)ccc23)CC1
  1.01, 0.9, i, 99.1, nt, nt, nt
CCN(CC)S(=O)(=O)c1ccc(C(=O)OCn2c(SC)nnc(C)c2=O)cc1
  0.94, -13.6, i, 50.1, -1.7, 93.2, 25.0
COCCOC(=O)c1c(C)oc2cc(Br)c(OCC(N)=O)cc12
  0.99, -9.6, i, 102.4, 2.1, 73.2, -19.4
CC(C)c1ccc(-c2nnn(Cc3nc4ccccc4s3)n2)cc1
  1, -6.6, i, 102.2, -1.9, 84.4, -7.7
Cc1nc2ccccc2c2c1C(=O)N(C(C)C)C2=O
  0.99, -4.3, i, 101.3, 0.1, 69.8, 14.7
Cc1cc(C)cc(NC(=O)C(c2ccccc2)N2CCCC2)c1 (stereo unspecified)
  0.96, 1.3, i, 97.0, -1.6, 56.4, 40.0
CN(C)c1ccc(/C=N/n2c(-c3ccccc3Br)n[nH]c2=S)cc1
  1.01, nt, i, 91.3, nt, nt, nt
Cc1ccc(OCC(=O)N2CCN(S(=O)(=O)c3ccc(Cl)cc3)CC2)c([N+](=O)[O-])n1
  0.92, -3.1, i, 100.9, 2.0, nt, nt

Structures listed so far with a cyano group, in the order listed:
Second line of a record – HSV augment primary fold, PKD1 kinase inh, HSV augment, RGS16-Gao HTS, GALR2 ag, Insulin prom inh cell count, Insulin prom inh
COc1cc(NS(=O)(=O)c2ccc(N/C=C(\C#N)c3nc4cc(Cl)ccc4o3)cc2)nc(OC)n1
  0.79, 4.7, i, 100.8, 0.3, 118.4, 26.7
CCN(CC)C(=O)CSc1nc(N)c(C#N)c(-c2cccs2)c1C#N
  0.98, -5.7, i, 98.6, 0.0, 131.7, 38.1
COc1ccc(-c2cc(-c3cccnc3)c(C#N)c(N)n2)cc1
  0.93, nt, i, 94.1, nt, nt, nt

Additional entries.
Second line of a record – HSV augment primary fold, PKD1 kinase inh, HSV augment, RGS16-Gao HTS, GALR2 ag, Insulin prom inh cell count, Insulin prom inh
O=C(NCc1ccccn1)c1cc(-c2ccccc2)on1
  1.14, -11.9, i, 102.0, -3.1, 111.5, 20.7
O=C(Nc1nc(-c2ccccn2)cs1)C1COc2ccccc2O1 (stereo unspecified)
  0.85, 0.8, i, 103.7, -1.6, 96.1, 14.3
Cc1ncc([N+](=O)[O-])n1CCOC(=O)c1ccccc1
  0.97, 3.8, i, 98.5, -2.2, nt, nt
COc1ccc(-c2noc(CCC(=O)N3CCC(C)CC3)n2)cc1
  1.01, -6.5, i, 100.5, -2.5, 132.8, -113.3
CCNC(=O)CC1C(=O)N(c2ccc(F)cc2)C(=O)N1CCc1sccc1C (stereo unspecified)
  0.95, -3.8, i, 99.2, nt, nt, nt
O=C(CSc1nc2ccccc2c(=O)n1CCCN1CCOCC1)Nc1cccc(S(=O)(=O)N2CCCCCC2)c1
  0.65, 1.4, i, 106.2, 0.6, 73.3, -14.8
Clc1ccc2oc(-c3ccccn3)nc2c1
  0.93, -7.6, i, 104.2, -1.4, 108.9, 37.1
O=C(NC(=S)N1CCN(C2CCCCC2)CC1)c1ccccc1
  0.97, 0.4, i, 104.0, nt, nt, nt
CN1CCN(C(=O)c2cc(COc3ccc(F)cc3Cl)on2)CC1c1ccccc1 (stereo unspecified)
  0.97, -0.9, i, 85.9, nt, nt, nt
Cc1ccc(C)c(-n2cc(CNC(C)Cn3cncn3)c(-c3ccccc3)n2)c1 (stereo unspecified)
  0.95, nt, i, 99.5, nt, nt, nt
COC(=O)CN1C(=O)N/C(=C/c2cc(Cl)c(OC)c(OC)c2)C1=O
  0.95, -6.4, i, 102.2, nt, nt, nt
C/C(CCC1CC(C)OC1=O)=N\NC(N)=S (stereo unspecified)
  1.02, nt, i, 99.9, nt, nt, nt
COc1cc2cc(C(=O)O)[nH]c2c(OC)c1OC
  0.91, -7.3, i, 112.6, -3.0, 117.8, 9.4
COc1ccc(N2C(=O)CC(Sc3n[nH]c(-c4ccccc4)n3)C2=O)cc1 (stereo unspecified)
  0.94, nt, i, 99.0, nt, nt, nt
CCc1nc(SC)[nH]c(=O)c1C
  0.91, 2.2, i, 101.3, -2.3, nt, nt
CC1CC(OCC(O)CN2CCOCC2)CC(C)(C)C1 (stereo unspecified)
  1, -1.2, i, 95.2, 0.0, 114.2, 50.0
CC(/C=N/NC(=O)CN1CCN(Cc2ccc(Cl)cc2)CC1)=C\c1ccco1
  1.02, 3.7, i, 103.3, -1.1, 114.8, 6.2
C#CCNC(=O)C1=C[C@H](c2ccc(Br)cc2)C[C@H](OCc2ccc(CO)cc2)O1
  0.98, 8.4, i, 117.7, nt, nt, nt
COCCn1nnnc1CN1CCC(C)CC1
  1.06, -1.5, i, 96.0, -1.5, 109.4, -37.5
CCN(CC)CCSc1nc(O)c(Cc2ccccc2)c(=O)n1-c1ccccc1
  1.01, -5.6, i, 108.1, nt, 158.8, -33.3

Compounds above containing a nitro group on carbon (two):
Second line of a record – HSV augment primary fold, PKD1 kinase inh, HSV augment, RGS16-Gao HTS, GALR2 ag, Insulin prom inh cell count, Insulin prom inh
Cc1ccc(OCC(=O)N2CCN(S(=O)(=O)c3ccc(Cl)cc3)CC2)c([N+](=O)[O-])n1
  0.92, -3.1, i, 100.9, 2.0, nt, nt
Cc1ncc([N+](=O)[O-])n1CCOC(=O)c1ccccc1
  0.97, 3.8, i, 98.5, -2.2, nt, nt

New compounds follow
Second line of a record – HSV augment primary fold, PKD1 kinase inh, HSV augment, RGS16-Gao HTS, GALR2 ag, Insulin prom inh cell count, Insulin prom inh
COc1cc(C(=O)N(Cc2cccc(Cl)c2)C2CCS(=O)(=O)C2)cc(OC)c1OC (stereo unspecified)
  1.23, -10.5, i, 99.2, 0.2, 102.3, -48.3
COc1ccc(-c2nc(CCNC(=O)c3cccs3)cs2)cc1
  0.75, 13.3, i, 104.1, -1.7, nt, nt
COc1ccccc1C1(O)CCN(C(=O)c2cccs2)CC1
  nt, 5.5, nt, 95.5, -3.2, 178.4, -43.2
COc1ccccc1N1CCN(C(=O)CSc2nc(C)cc(=O)[nH]2)CC1
  0.98, -1.1, i, 122.6, -2.7, 92.2, 42.9
CSCCC(NS(=O)(=O)c1ccc2c(c1)c(=O)n(C)c(=O)n2C)C(=O)NC1CCN(Cc2ccccc2)CC1 (stereo unspecified)
  1.06, -2.4, i, 100.4, nt, nt, nt
CCCC12CN3CCN(CC(C3)/C1=N\NC(=O)c1ccccc1Cl)C2
  0.84, 6.5, i, 101.7, nt, nt, nt
CCn1cc(C(=O)NC2CCCCC2)c(=O)c2cc(S(=O)(=O)N(C)C)ccc21
  0.9, -14.5, i, 81.3, 0.5, nt, nt
CCOC(=O)N1CCC(N2C(=O)c3ccccc3C2Nc2c(C)cccc2C)CC1 (stereo unspecified)
  nt, 6.3, nt, 99.4, 0.7, nt, nt
COc1ccc(NC(=O)CN(Cc2ccccc2)S(C)(=O)=O)cc1OC
  0.99, 1.6, i, 102.6, -0.4, 76.8, 13.3

Individual results from the results shown:
PKD1 kinase inh result of CSCCC(NS(=O)(=O)c1ccc2c(c1)c(=O)n(C)c(=O)n2C)C(=O)NC1CCN(Cc2ccccc2)CC1 (stereo unspecified) : -2.4
RGS16-Gao HTS result of CCn1cc(C(=O)NC2CCCCC2)c(=O)c2cc(S(=O)(=O)N(C)C)ccc21 : 81.3
HSV augment primary fold result of COc1ccc(-c2nc(CCNC(=O)c3cccs3)cs2)cc1 : 0.75
Insulin prom inh result of COc1cc(C(=O)N(Cc2cccc(Cl)c2)C2CCS(=O)(=O)C2)cc(OC)c1OC (stereo unspecified) : -48.3

This is a random part of the collection; about 1.3% have a hit in one of these screens.
